PINK1 expr mod = A Quantitative High throughput Screen to Identify Chemical Modulators of PINK1 Expression; actives 0.2% (n = 410,000); Potency, µM (series often up to 76.6 µM), for the others: at the highest dose activation (PINK1 increase), usual class: activators; PINK1 immunofluorescence, high-content cytometry, 24 h; active = well fitted activation curve with a large enough effect; inconclusive = small, poorly fitted or top-dose-only effect; inactive = flat fitted curve, though single readings scatter; cell line not stated here;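 further: potency means the concentration at half of the fitted maximal effect; % of control where 0% means no effect; nearly all actives have a fitted effect of over 65% in size; a mitochondrial uncoupler was the plate control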
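A stable cell line was treated with compounds at 5 concentrations for 24 hours, with CCCP as control. PINK1 levels and mitochondrial localization were measured by immunofluorescence with mitochondrial, cell and nuclear markers after fixation, read by laser-scanning cytometry.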
TRPML1 blocker = qHTS for Inhibitors of the Human Mucolipin Transient Receptor Potential 1 (TRPML1); Mucolipin-1 (Homo sapiens), Q9GZU1; TRPML1-inducible cells, Ca2+ dye fluorescence, FDSS; stronger effect = lower value; inhibition of EC80 agonist-evoked calcium signal; activity change, negative = inhibition, % (test concentration not listed); actives 0.02% (n = 390,000); in the data active means activity change below about -50%; inconclusive means about -30% to -50%; inactive means above about -30%;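 further: stimulus is agonist 54-4 at its EC80 concentration; on the % scale 0 is the no-effect control and ±100 the full control effect; compound concentration not given in the record; the text of the record puts the active cut at -80%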
Target sequence (Q9GZU1 whole entry, looked up): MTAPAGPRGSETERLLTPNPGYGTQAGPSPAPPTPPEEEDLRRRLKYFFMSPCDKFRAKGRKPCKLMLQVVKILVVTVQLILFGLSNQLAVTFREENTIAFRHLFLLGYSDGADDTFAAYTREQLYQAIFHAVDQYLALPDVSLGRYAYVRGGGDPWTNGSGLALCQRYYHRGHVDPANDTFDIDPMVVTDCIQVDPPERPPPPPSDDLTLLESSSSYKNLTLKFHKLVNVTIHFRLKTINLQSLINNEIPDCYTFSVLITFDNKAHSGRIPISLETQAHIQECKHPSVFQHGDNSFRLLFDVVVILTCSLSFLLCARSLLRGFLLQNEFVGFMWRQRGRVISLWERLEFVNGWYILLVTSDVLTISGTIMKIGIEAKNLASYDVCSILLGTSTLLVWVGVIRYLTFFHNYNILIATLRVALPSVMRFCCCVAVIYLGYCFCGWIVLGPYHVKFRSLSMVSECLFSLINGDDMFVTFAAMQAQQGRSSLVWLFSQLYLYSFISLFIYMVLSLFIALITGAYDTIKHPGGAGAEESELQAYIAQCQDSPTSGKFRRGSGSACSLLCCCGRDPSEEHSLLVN
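Tet-induced TRPML1-DL cells loaded with Ca8 no-wash calcium dye were read kinetically on FDSS. Compound addition was followed by EC80 agonist 54-4 (4 uM final); inhibition was read over 110 s.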
TRPML1 ag = qHTS for Agonists of the Human Mucolipin Transient Receptor Potential 1 (TRPML1) | TRPML1-expressing cells, Ca2+ dye fluorescence, FDSS; host cell line not named in the record; reference of the full effect not given here | activation, % (no concentration beside the values) | actives 0.12% (n = 410,000); in the data active = activation above about 50%; inconclusive = about 30% to 50%; inactive = below about 30%; further: 0% is about no effect; the text of the record puts the active cut at 80%
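Kinetic FDSS Ca2+ read in Tet-induced TRPML1-DL cells (ABD Ca8 dye plus quencher, 45-90 min RT loading): baseline, then compound, then 110 s agonist window; EC80 agonist 54-4 at 4uM final added afterwards for a 110 s antagonist window.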
CtBP-E1A inh = qHTS Assay for Inhibitors of the CtBP/E1A Interaction; actives 0.49% (n = 340,000); AlphaScreen GST-E1A/His-CtBP binding, 1536-well; stronger effect = lower value; control for the full effect not named in the record; activity change, % (concentration not given with the values); CtBP / adenovirus E1A interaction (AlphaScreen); in the data active means activity change below about -65%; inconclusive means about -30% to -65%; inactive means above about -30%; further: on the % scale 0 is the no-effect control and ±100 the full control effect
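Steps: dispense buffer (Tris pH 8.0, NaCl 300 mM, TCEP 1 mM, BSA, Tween 20); add 5X protein mix (GST-E1A, His-CtBP, 125 nM each); pin 23 nL compound; 2 h at 37 °C, dark; add 5X beads (50 ug/mL); 1 h; read.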
D2 agonist = Beta-Arrestin HTS for Positive Allosteric Modulators of the Human D2 Dopamine Receptor: Agonists. DiscoveRx PathHunter D2 beta-arrestin, luminescence, 90 min; 100% = 57 uM dopamine signal. AID 624465, 2012. activation, % (no concentration beside the values). actives 0.084% (n = 360,000); in the data active = activation above about 40%; inconclusive = about 15% to 40%; inactive = below about 15%; further: compound concentration not given in the record; the text of the record calls up to 30% inactive
Target sequence (P14416 whole entry, looked up): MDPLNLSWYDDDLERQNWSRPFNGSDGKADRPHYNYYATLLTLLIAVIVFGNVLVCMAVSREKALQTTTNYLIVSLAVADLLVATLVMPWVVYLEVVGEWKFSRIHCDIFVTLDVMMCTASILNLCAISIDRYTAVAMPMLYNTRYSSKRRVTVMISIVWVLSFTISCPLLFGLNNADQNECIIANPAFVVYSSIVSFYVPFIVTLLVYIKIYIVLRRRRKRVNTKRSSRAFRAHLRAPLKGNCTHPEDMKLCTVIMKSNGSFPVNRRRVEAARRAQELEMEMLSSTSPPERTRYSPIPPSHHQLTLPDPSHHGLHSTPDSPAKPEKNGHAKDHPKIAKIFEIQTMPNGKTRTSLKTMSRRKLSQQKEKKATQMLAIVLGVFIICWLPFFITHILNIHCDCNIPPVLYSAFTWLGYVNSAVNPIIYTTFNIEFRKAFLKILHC
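Agonist mode: compounds alone added to overnight-plated D2 PathHunter cells for 90 min at 37 C, with 57 uM final dopamine (EC100) defining full response. Beta-arrestin recruitment detected by chemiluminescent reagent, read after 1 h at ambient temperature.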
Six1-Eya2 blk = qHTS Assay for Inhibitors of the Six1/Eya2 Interaction. AlphaScreen GST-Six1/His-Eya2 binding, biochemical; stronger effect = lower value; control for the full effect not named in the record. activity change, % (concentration not given with the values). actives 0.56% (n = 360,000). AID 651725, 2012; in the data active = activity change below about -65%; inconclusive = about -30% to -65%; inactive = above about -30%; further: on the % scale 0 is the no-effect control and ±100 the full control effect
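AlphaScreen with GST-Six1 and His-Eya2 (5X mix: 250 nM and 500 nM), glutathione donor and nickel acceptor beads; buffer 50 mM Tris pH 8.0, 300 mM NaCl, 1 mM TCEP; 1 h at 37 C in the dark.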
* = called active by the depositor; & = joins results of further samples; [ ] = another dose, or the depositor's remark.

Cc1ccccc1C(=O)NNC(=O)C(=O)N1CCCCC1 was read as PINK1 expr mod 1.3%, TRPML1 blocker -12, TRPML1 ag 0.5, CtBP-E1A inh -7, D2 agonist -1.6 and Six1-Eya2 blk 6.
For CC1CCN(C(=O)CSc2nnc(CSc3ncccn3)n2C)CC1 the results were PINK1 expr mod 8.0%[38.3 µM], TRPML1 blocker 3, TRPML1 ag 0.1, CtBP-E1A inh 2, D2 agonist -2.2 and Six1-Eya2 blk 2.
`COc1ccc(C=C(C(=O)c2ccccc2)C(=O)c2ccccc2)cc1` gave PINK1 expr mod 1.9%, TRPML1 ag 0.0, CtBP-E1A inh 28, D2 agonist -5.8 and Six1-Eya2 blk 26.
Screening COc1ccc(CNC2CCSc3ccccc32)cc1OC (stereo unspecified) returned PINK1 expr mod 0.7%, TRPML1 blocker -14, TRPML1 ag -0.8, CtBP-E1A inh 11, D2 agonist -3.1 and Six1-Eya2 blk -6.
`CCn1nnnc1SCC(=O)N1CCOCC1` gave PINK1 expr mod -0.3%, TRPML1 blocker 0, TRPML1 ag 0.2, CtBP-E1A inh -1, D2 agonist -2.5 and Six1-Eya2 blk 1.
Screening Cc1ccc2c(CC(=O)N(Cc3ccc(N(C)C)cc3)Cc3ccco3)coc2c1C returned PINK1 expr mod -0.6%, TRPML1 blocker -11 and TRPML1 ag 16.
`Cc1ccccc1Oc1ccc2c(c1)[C@@H]1C[C@H](N(C)C(=O)c3ccco3)[C@H]([C@H](C)O)C(=O)N1CC2` gave PINK1 expr mod 0.4%, TRPML1 blocker -6, TRPML1 ag 0.1, CtBP-E1A inh -4, D2 agonist -8.4 and Six1-Eya2 blk -11.
Screening CCCC[C@@H]1C[C@H]1[C@@H](NC(=O)c1ccco1)c1ccc(Cl)cc1 returned PINK1 expr mod 1.6%, TRPML1 blocker 16, TRPML1 ag 2.1, CtBP-E1A inh 13, D2 agonist 2.2 and Six1-Eya2 blk 7.
Screening CCOC(=O)Cn1cnc2c(nnn2-c2ccc(OC)cc2)c1=O returned PINK1 expr mod -2.7%[38.3 µM], TRPML1 blocker -25, TRPML1 ag 0.4, CtBP-E1A inh 6, D2 agonist -0.2 and Six1-Eya2 blk 2.
OC1CCCN(Cc2cn(Cc3ccccc3)nc2-c2cc3ccccc3o2)C1 (stereo unspecified) was read as PINK1 expr mod -1.7%, TRPML1 blocker 15, TRPML1 ag 0.9, CtBP-E1A inh -3, D2 agonist 1.5 and Six1-Eya2 blk -9.
CCC(Sc1nc2ccccc2c2nc(CCn3c(C)nc4ccccc43)nn12)C(=O)Nc1ccc(F)cc1 (stereo unspecified) was read as PINK1 expr mod 3.3%, TRPML1 blocker 9 and TRPML1 ag 0.7.
For Cc1nn(-c2ccccc2)c(N2CCCC2)c1/C=N/NC(=O)c1cc2ccccc2cc1O the results were PINK1 expr mod 16µM*, TRPML1 blocker 33, TRPML1 ag 1.4, CtBP-E1A inh 4, D2 agonist 4.9 and Six1-Eya2 blk -11.
Screening COc1ccc(Cc2nnc(NC(=O)c3ccc(F)cc3)s2)cc1OC returned PINK1 expr mod 0.8%, D2 agonist -2.8 and Six1-Eya2 blk -2.
Screening CCOC(=O)c1cccc(NS(=O)(=O)c2ccc(-c3coc(C)n3)cc2)c1 returned PINK1 expr mod 2.2%, TRPML1 blocker -14 and TRPML1 ag 3.1.
Screening CN(C)c1ccc(N=C/C=C2/N(C)c3ccccc3C2(C)C)cc1 returned PINK1 expr mod inconclusive, TRPML1 blocker 8, TRPML1 ag 1.0, D2 agonist 6.0 and Six1-Eya2 blk -68*.
Cc1ccccc1Cn1nc(C)c(NC(=O)C2c3ccccc3Oc3ccccc32)c1C was read as PINK1 expr mod 7.4%, TRPML1 blocker -12, TRPML1 ag 0.1, CtBP-E1A inh 7, D2 agonist -5.3 and Six1-Eya2 blk 1.
For O=C(NNC(=O)c1ccc(NC(=O)c2ccccc2)cc1)Nc1ccccc1 the results were PINK1 expr mod 5.9%, TRPML1 blocker 5, TRPML1 ag 0.0, CtBP-E1A inh -3, D2 agonist -5.0 and Six1-Eya2 blk 4.
For Cc1cccc(NC(=O)CN2C(=O)S/C(=C\c3cc(C)n(C)c3C)C2=O)c1 the results were PINK1 expr mod 2.3%, TRPML1 blocker 36, TRPML1 ag -0.6, CtBP-E1A inh -11, D2 agonist -2.3 and Six1-Eya2 blk -1.
`CCOc1ccc(/C=C2\SC(=S)N(Nc3ccccc3)C2=O)cc1OC` gave PINK1 expr mod 1.7%, TRPML1 blocker 13, TRPML1 ag 1.9, D2 agonist 1.3 and Six1-Eya2 blk -1.
Screening CCN(CC)S(=O)(=O)c1ccc2[nH]cc(C(=O)NCCc3ccccc3)c(=O)c2c1 returned PINK1 expr mod 3.2%&1.3%, TRPML1 blocker -9&27, TRPML1 ag 1.5&-0.9, CtBP-E1A inh -16, D2 agonist 0.3 and Six1-Eya2 blk -22.
For CCCCC(=O)Nc1cc(N(C)C)nc2ccccc12 the results were PINK1 expr mod 5.1%, TRPML1 blocker -6, TRPML1 ag 0.0, CtBP-E1A inh 0, D2 agonist -1.6 and Six1-Eya2 blk 4.
`Cc1cccnc1NC(=O)CNC(=O)c1sc2ccccc2c1Cl` gave PINK1 expr mod 4.5%, TRPML1 blocker 1, TRPML1 ag 0.2, CtBP-E1A inh -3, D2 agonist -3.6 and Six1-Eya2 blk -5.
COCCn1c(C)cc(C(=O)COC(=O)CCc2ccc(S(=O)(=O)N3CCOCC3)cc2)c1C was read as PINK1 expr mod 1.2%, TRPML1 blocker -3, TRPML1 ag -0.5, CtBP-E1A inh -10, D2 agonist -1.3 and Six1-Eya2 blk -5.
Screening CCOC(=O)N1CCN(CC(=O)Nc2ccccc2C(=O)Nc2ccccc2)CC1 returned PINK1 expr mod -0.5%, TRPML1 blocker -2, TRPML1 ag 0.9, CtBP-E1A inh 5, D2 agonist -4.7 and Six1-Eya2 blk 11.
For c1ccc(Nc2nc(N3CCCCC3)nc(N3CCNCC3)n2)cc1 the results were PINK1 expr mod 8.2%[38.3 µM], TRPML1 blocker -8, TRPML1 ag -0.5, CtBP-E1A inh -5, D2 agonist -5.7 and Six1-Eya2 blk -7.
For CC(=O)N1CCN(CC(=O)Nc2ccccc2C(=O)NCc2ccc(C)cc2)CC1 the results were PINK1 expr mod 1.4%, TRPML1 blocker -14, TRPML1 ag -0.6, CtBP-E1A inh 2, D2 agonist -7.0 and Six1-Eya2 blk -1.
Screening CCCc1cc(NCCCCO)n2c(nc3ccccc32)c1C#N returned PINK1 expr mod -0.6%, TRPML1 blocker 10, TRPML1 ag 0.0, CtBP-E1A inh 1, D2 agonist -3.6 and Six1-Eya2 blk 0.
COc1ccc2c(c1)[nH]c1c(=O)n(CCN(C)C)cnc12 was read as PINK1 expr mod 0.0%, TRPML1 blocker 3, TRPML1 ag -0.1, CtBP-E1A inh -1, D2 agonist -1.7 and Six1-Eya2 blk 5.
Screening COc1cccc(=O)c2c(C)oc(C)c12 returned PINK1 expr mod -3.0%, TRPML1 blocker 10, TRPML1 ag 1.4, CtBP-E1A inh 9, D2 agonist -2.1 and Six1-Eya2 blk -1.
For COc1ccccc1C(=O)NCCC(=O)Nc1ccc(OC(F)(F)F)cc1 the results were PINK1 expr mod 11%, TRPML1 blocker -20, TRPML1 ag -0.5, CtBP-E1A inh 5, D2 agonist 0.0 and Six1-Eya2 blk 8.
CCOc1cccc(-c2nc3c(s2)CCc2onc(-c4cccc([N+](=O)[O-])c4)c2-3)c1 was read as PINK1 expr mod 1.2%, TRPML1 blocker -6, TRPML1 ag -0.2, D2 agonist -0.1 and Six1-Eya2 blk -1.
For Cc1ccc(CNC(=O)c2cccc(S(C)(=O)=O)c2)cc1 the results were PINK1 expr mod 1.0%, TRPML1 blocker -7, TRPML1 ag -0.5, CtBP-E1A inh 1, D2 agonist -3.6 and Six1-Eya2 blk 0.
For Cc1ccc(NC(=O)CN(C)C(=O)c2n[nH]c(=O)c3ccccc23)cc1 the results were PINK1 expr mod 0.2%, TRPML1 blocker -9, TRPML1 ag 0.5, CtBP-E1A inh -23, D2 agonist -5.3 and Six1-Eya2 blk 10.
For CC(=O)Nc1ccc(-c2csc(NCCc3ccccc3)n2)cc1 the results were PINK1 expr mod 1.8%, TRPML1 blocker 11, TRPML1 ag 8.1, CtBP-E1A inh -8, D2 agonist 11 and Six1-Eya2 blk -5.
`CC1c2ccccc2N(NC(=O)Cc2ccccc2)C1C` (stereo unspecified) gave PINK1 expr mod 0.7%, TRPML1 blocker -15, TRPML1 ag 0.7, CtBP-E1A inh 5, D2 agonist 3.0 and Six1-Eya2 blk 4.
Cc1ccc(C#N)c(SCc2cc3c(cc2Cl)OCO3)n1 was read as PINK1 expr mod 21%[38.3 µM], TRPML1 blocker -10, TRPML1 ag 3.8, CtBP-E1A inh 1, D2 agonist -1.7 and Six1-Eya2 blk 2.
`CN(CCC#N)C(=O)COC(=O)c1ccc2c(=O)n3c(nc2c1)CCC3` gave PINK1 expr mod -1.0%, TRPML1 blocker -15, TRPML1 ag 2.0, D2 agonist 2.6 and Six1-Eya2 blk 0.
Screening CC(C)(C)c1ccc(S(=O)(=O)NCc2ccc(C(=O)NCc3ccccn3)cc2)cc1 returned PINK1 expr mod -0.4%, TRPML1 blocker 5, TRPML1 ag 2.1, CtBP-E1A inh 0, D2 agonist 0.0 and Six1-Eya2 blk 4.
Cc1ccc(C)c(CSc2nnc(CCN)o2)c1 was read as PINK1 expr mod 3.1%[38.3 µM], TRPML1 blocker -1, TRPML1 ag 0.3, CtBP-E1A inh -1, D2 agonist -3.3 and Six1-Eya2 blk -2.
For CCN(C(=O)COC(=O)CNC(=O)c1ccc2ccccc2c1)C1CCS(=O)(=O)C1 (stereo unspecified) the results were PINK1 expr mod 1.5%, TRPML1 blocker 14, TRPML1 ag -0.4, CtBP-E1A inh 5, D2 agonist -2.8 and Six1-Eya2 blk -2.
For Cc1ccc(N(C)S(=O)(=O)c2ccc3c(c2)NC(=O)C(C)S3)cc1 (stereo unspecified) the results were PINK1 expr mod -0.7%, TRPML1 blocker 1, TRPML1 ag 3.1, CtBP-E1A inh -18, D2 agonist -1.7 and Six1-Eya2 blk 5.

An excerpt from above in order of length of the SMILES, smallest number first:
Cc1ccc(C)c(CSc2nnc(CCN)o2)c1 was read as PINK1 expr mod 3.1%[38.3 µM], TRPML1 blocker -1, TRPML1 ag 0.3, CtBP-E1A inh -1, D2 agonist -3.3 and Six1-Eya2 blk -2.
For CCN(C(=O)COC(=O)CNC(=O)c1ccc2ccccc2c1)C1CCS(=O)(=O)C1 (stereo unspecified) the results were PINK1 expr mod 1.5%, TRPML1 blocker 14, TRPML1 ag -0.4, CtBP-E1A inh 5, D2 agonist -2.8 and Six1-Eya2 blk -2.
Screening CC(C)(C)c1ccc(S(=O)(=O)NCc2ccc(C(=O)NCc3ccccn3)cc2)cc1 returned PINK1 expr mod -0.4%, TRPML1 blocker 5, TRPML1 ag 2.1, CtBP-E1A inh 0, D2 agonist 0.0 and Six1-Eya2 blk 4.
